High-throughput results (PubChem)
MbtI inh: MbtI salicylate synthase inhibition. purified MbtI enzyme, fluorescence intensity read-out. inhibition, %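 (about 17 µg/mL by stock and volumes)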. 0.89% of 100,000 active;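 active = above 50% in both replicates, above 80% if mildly self-fluorescent; inactive = the rest, strongly fluorescent compounds included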;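 also: 0% = mean of negative and 100% = mean of positive controls; one replicate is shown; some compounds called inactive have numbers as strong as hits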
Target sequence (P9WFX0 whole entry, looked up): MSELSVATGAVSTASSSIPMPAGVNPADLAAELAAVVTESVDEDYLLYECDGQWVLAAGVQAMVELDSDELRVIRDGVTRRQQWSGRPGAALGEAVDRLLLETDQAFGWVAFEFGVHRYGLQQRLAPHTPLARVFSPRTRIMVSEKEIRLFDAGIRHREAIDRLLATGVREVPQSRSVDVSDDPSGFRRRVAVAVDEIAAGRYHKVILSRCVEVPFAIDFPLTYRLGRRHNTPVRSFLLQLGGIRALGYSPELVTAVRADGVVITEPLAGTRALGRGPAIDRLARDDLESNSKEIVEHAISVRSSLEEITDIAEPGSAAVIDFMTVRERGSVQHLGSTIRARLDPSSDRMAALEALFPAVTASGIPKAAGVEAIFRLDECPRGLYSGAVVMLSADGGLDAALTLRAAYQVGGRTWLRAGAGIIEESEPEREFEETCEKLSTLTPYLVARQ
Polio RdRp inh: poliovirus RNA polymerase inhibition. P03300. poliovirus polymerase elongation, fluorescence polarization; active compounds read low. % elongation, % (compound at 16.7 µg/mL). 0.66% of 150,000 active. AID 588519; in the data active = % elongation below about 90%; also: some results filed as inactive read as strong as hits
Target sequence (P03300 1749-2209 limits assumed): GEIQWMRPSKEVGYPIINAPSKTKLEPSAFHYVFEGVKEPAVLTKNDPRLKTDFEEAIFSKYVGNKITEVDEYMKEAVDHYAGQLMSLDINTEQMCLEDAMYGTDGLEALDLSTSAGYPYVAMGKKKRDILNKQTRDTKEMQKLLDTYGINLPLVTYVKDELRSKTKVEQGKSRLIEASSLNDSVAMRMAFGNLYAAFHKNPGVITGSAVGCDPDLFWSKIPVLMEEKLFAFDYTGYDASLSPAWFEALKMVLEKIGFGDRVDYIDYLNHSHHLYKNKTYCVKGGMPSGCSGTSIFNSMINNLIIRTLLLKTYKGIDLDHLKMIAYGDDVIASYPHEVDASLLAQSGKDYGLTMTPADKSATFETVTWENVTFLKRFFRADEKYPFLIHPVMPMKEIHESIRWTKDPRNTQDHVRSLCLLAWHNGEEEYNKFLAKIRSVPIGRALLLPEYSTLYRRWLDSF
MenB inh: inhibitors of Mycobacterium tuberculosis MenB enzyme; P9WNP5; MenB enzyme assay, absorbance read-out; some hits fall short of the stated cut; inhibition, %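 (about 12 µg/mL by stock and volumes)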; 0.43% of 100,000 active;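 active = mean of two replicates above 30%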;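 also: 0% = no compound and 100% = wells with inactive enzyme; the first replicate is given; strong numbers were not always called active; inactives centre near -10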
Polio RdRp inh intensity: also measured in Polio RdRp inh; calls as there; % elongation; measured here: total intensity read-out; formula for this scale not given here;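 total fluorescence in place of polarization; lower means less elongation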
* marks the source's active call; other numbers are inactive results; · = not tested or not shown.

Short keys: A = MbtI inh; B = Polio RdRp inh; C = Polio RdRp inh intensity; D = MenB inh
> COc1ccc(-c2nc(=O)c3ccccc3o2)cc1
  A: 6 | B: 98 | C: 102 | D: 11
> CCn1c(=N)c(C(=O)NCc2ccccc2)cc2c(=O)n3ccccc3nc21
  A: 115 | B: 103 | C: 102 | D: -25
> CCc1nc2ccc(C(=O)NCc3cn[nH]c3C)cc2nc1CC
  A: -1 | B: 101 | C: 99 | D: -33
> Cc1c(NC(=O)NCc2ccccc2)c(=O)n(-c2ccccc2)n1C
  A: 3 | B: 104 | C: 103 | D: -4
> NCCCc1cn[nH]c1
  A: 3 | B: 102 | C: 102 | D: 11
> COc1cc(/C=N/c2c(-c3ccc(O)c(OC)c3)nc3ccccn23)ccc1O
  A: · | B: 107 | C: 109 | D: -27
> CC(C)n1nnnc1SCC(=O)NC(=O)NC1CCS(=O)(=O)C1 (stereo not given)
  A: 21 | B: 98 | C: 92 | D: -12
> O=C1C(=Cc2c[nH]c3ccccc23)C(=O)c2ccccc21
  A: · | B: 165 | C: 186 | D: -27
> COc1ccc([C@H]2[C@@H](C(=O)O)c3ccccc3C(=O)N2Cc2ccc3c(c2)OCO3)cc1
  A: 4 | B: 38* | C: 53* | D: 6
> O=C1CCN(C(=O)c2cccc(CN3C(=O)c4ccccc4C3=O)c2)CC1
  A: 16 | B: 103 | C: 101 | D: -26
> O=S(=O)(c1ccc(F)cc1)N1CN2CCN(C2)C1
  A: -1 | B: 102 | C: 104 | D: 16
> Nc1ncnc2c1ncn2C1OC(C(=O)O)C(O)C1O (stereo not given)
  A: -15 | B: 102 | C: 101 | D: -2
> CCN1C(=O)C(=Cc2ccc(O)c(I)c2)C(=O)N(CC)C1=S
  A: -29 | B: 101 | C: 102 | D: -75
> CC1=NN(CCc2nc(-c3ccc(Cl)cc3)cs2)C(=O)C1
  A: 10 | B: 98 | C: 94 | D: -2
> COc1cc(C2c3cc4c(c(O)c3CC3COC(=O)C32)OCO4)cc(OC)c1O (stereo not given)
  A: · | B: 103 | C: 105 | D: 3
> Cn1cnnc1SCC(=O)N(c1ccccc1)c1ccccc1
  A: -6 | B: 99 | C: 102 | D: -18
> O=C1c2ccccc2-c2nc3nonc3nc21
  A: 2 | B: 63 | C: 126 | D: -13
> CN1Cc2c(ccc3c2OCO3)[C@@H]2[C@H]1c1cc3c(cc1C[C@@H]2O)OCO3
  A: -15 | B: 100 | C: 101 | D: -2
> Cc1ccc(OCC(=O)O)cc1
  A: -8 | B: 102 | C: 100 | D: ·
> O=C(N(c1ccccc1)c1ccccc1)n1cncn1
  A: -41 | B: 101 | C: 103 | D: 9
> O=C1CCCN1C(=O)CN1CCCCC1
  A: -3 | B: 100 | C: 101 | D: 19
> NC(=O)CS(=O)(=O)c1nc2ccccc2n1Cc1ccccn1
  A: 1 | B: 104 | C: 104 | D: -21
> COC(=O)c1sc2ccccc2c1S(=O)(=O)NCc1ccco1
  A: -21 | B: 102 | C: 102 | D: -7
> CCN1CCN(C(=O)CC2(C(F)(F)F)OCCO2)CC1
  A: -1 | B: 102 | C: 104 | D: ·
> COC1(NC(=O)c2ccc(C)cc2)C(C)=CC(=O)C=C1C
  A: 28 | B: 103 | C: 105 | D: 0
> COc1ccc(N=C2SCC(=O)N2CCc2ccc(OC)c(OC)c2)cc1
  A: -8 | B: 108 | C: 117 | D: -6
> N/C(CS(=O)(=O)Cc1ccc(F)cc1)=N\O
  A: -10 | B: 106 | C: 110 | D: 10
> O=C1CCCC(O)=C1N=Nc1ccc(Cl)c(Cl)c1
  A: -2 | B: 99 | C: 104 | D: -70
> COc1cc(C(=O)O)cc(Br)c1OC
  A: -1 | B: 101 | C: 102 | D: 0
> COc1ccc(CC(=O)N(C)c2ccccc2)cc1
  A: -6 | B: 100 | C: 102 | D: -4
> CC1CCN(Cc2c(F)cccc2F)CC1
  A: -12 | B: 102 | C: 102 | D: -23
> COc1ccc2c(c1OC)C(=O)O[C@@H]2[C@H]1c2c(cc3c(c2OC)OCO3)CCN1C
  A: -5 | B: 99 | C: 102 | D: 0
> CCC(=O)OCc1cc(F)cc2c1OC(c1ccccc1)OC2 (stereo not given)
  A: -6 | B: 105 | C: 108 | D: -24
> Cc1cccc(SCC(=O)Nc2ccc3c(c2)OCCO3)c1
  A: · | B: 106 | C: 102 | D: -7
> CC(C)N1C(=O)N(c2ccccc2)C(=O)C1CC(=O)Nc1ccccc1 (stereo not given)
  A: -6 | B: 102 | C: 101 | D: -21
> CC1CCCCC1NC(=O)/C(C#N)=C/c1ccc2c(c1)OCCO2 (stereo not given)
  A: -3 | B: 102 | C: 104 | D: -16
> Cc1cc(Cl)ccc1OCC(=O)OCC(=O)N1CCC(C(N)=O)CC1
  A: 11 | B: 100 | C: 107 | D: -7
> Cc1c(NC(=O)C2CCCC2)c(=O)n(-c2ccccc2)n1C
  A: · | B: 105 | C: 104 | D: -9
> COc1ccc(-c2nnc(SCc3cc(=O)n4cc(Br)ccc4n3)n2N)cc1OC
  A: 11 | B: 105 | C: 97 | D: -38
> CC(=O)N1CCC(n2nc(-c3ccccc3)oc2=O)CC1
  A: 5 | B: 102 | C: 99 | D: 16
> CCOC(=O)c1c(C)noc1-c1ccc(Br)o1
  A: 3 | B: 105 | C: 105 | D: 0
> CN1CCN(S(=O)(=O)c2ccc(NC(=O)COc3ccccc3Cl)cc2)CC1
  A: 0 | B: 102 | C: 102 | D: 27
> COC(CN(C)C(=O)c1ccc(CS(=O)(=O)c2ccccc2C)o1)OC
  A: 12 | B: 101 | C: 92 | D: -14
> O=C1C[C@H](N2C(=O)c3ccccc3S2(=O)=O)C2CO[C@@H]1O2
  A: · | B: 99 | C: 95 | D: 10
> Oc1ccc(-c2cccc(-c3ccc(O)cc3)c2)cc1
  A: -13 | B: 100 | C: 101 | D: -22
> Cc1cccc(C2Sc3ccccc3N=C3c4ccccc4C(=O)C32)c1 (stereo not given)
  A: · | B: 112 | C: 115 | D: -38
> Cc1ccccc1Nc1nc(N)nc(COC(=O)C2CCN(C(=O)c3ccc(F)cc3)CC2)n1
  A: -8 | B: 103 | C: 110 | D: -26
> O=c1c2cn[nH]c2[nH]c(=S)n1-c1cccc(C(F)(F)F)c1
  A: 26 | B: 100 | C: 93 | D: -16
> CCCc1nnc(SCC(=O)N2c3ccccc3Sc3ccccc32)o1
  A: -4 | B: 101 | C: 98 | D: -83
> Cc1csc2c(SCC(O)C(F)(F)F)ncnc12 (stereo not given)
  A: 1 | B: 104 | C: 95 | D: -22

Next compounds.
Short keys: A = MbtI inh; B = Polio RdRp inh; C = Polio RdRp inh intensity; D = MenB inh
> NS(=O)(=O)c1ccc(CCn2c(-c3ccccc3)nc(=S)c3c2CCCC3)cc1
  A: 9 | B: 98 | C: 102 | D: -27
> COc1ccc(N(Cc2cccs2)C(=O)CSc2n[nH]c(-c3cccs3)n2)cc1
  A: 8 | B: 101 | C: 105 | D: -15
> Cc1cccc(/C=C2\Sc3ccc(C(=O)NCCC(C)C)cc3N(C)C2=O)c1
  A: 1 | B: 105 | C: 107 | D: -27
> O=C(COC(=O)C1c2ccccc2Oc2ccccc21)NCc1ccco1
  A: 3 | B: 103 | C: 104 | D: -22
> CC(C)CNCC(=O)Nc1ccc(S(N)(=O)=O)cc1
  A: -13 | B: 106 | C: 110 | D: -19
> COc1ccc(C(=O)CSc2nc(C)cc(C)n2)cc1C
  A: 9 | B: 101 | C: 103 | D: -37
> CCn1cc(C(=O)OCC(=O)N2CCN(S(=O)(=O)c3ccc(Cl)cc3)CC2)c(=O)c2ccc(C)nc21
  A: -4 | B: 105 | C: 107 | D: -36
> CCCN1C(=O)C(O)(C/C(C)=N\O)c2ccccc21 (stereo not given)
  A: · | B: 104 | C: 111 | D: -6
> CN(C)/C=C(\Sc1nnc(N)s1)C(=O)Nc1ccc(F)c(F)c1F
  A: -38 | B: 110 | C: 115 | D: -9
> Cc1ccc(N2C(=O)CC(C3=C(N4CCOCC4)CCCC3)C2=O)cc1 (stereo not given)
  A: -7 | B: 103 | C: 104 | D: 4

Given with each value named: two of the compounds above
CCc1nc2ccc(C(=O)NCc3cn[nH]c3C)cc2nc1CC
  MbtI inh: -1 | Polio RdRp inh: 101 | Polio RdRp inh intensity: 99 | MenB inh: -33
COc1ccc(-c2nnc(SCc3cc(=O)n4cc(Br)ccc4n3)n2N)cc1OC
  MbtI inh: 11 | Polio RdRp inh: 105 | Polio RdRp inh intensity: 97 | MenB inh: -38

Going on with the list.
Short keys: A = MbtI inh; B = Polio RdRp inh; C = Polio RdRp inh intensity; D = MenB inh
> O=C(c1cnn(C(=O)COc2ccccc2F)c1)c1cc(F)ccc1O
  A: -12 | B: 99 | C: 94 | D: -44
> CC(/C(O)=C(\C#N)c1nc2ccccc2n1C)N1C(=O)c2ccccc2C1=O (stereo not given)
  A: 1 | B: 99 | C: 108 | D: 9
> Cc1ccc(-n2cnc3cc(N=Cc4ccc(N(C)C)cc4)ccc32)cc1
  A: -3 | B: 104 | C: 110 | D: -2
> Cc1ccc(C(=O)CNc2cccc3ccccc23)cc1
  A: · | B: 112 | C: 106 | D: -1
> COc1cccc(CNc2ccc3c(c2)ncn3C)c1
  A: -112 | B: 102 | C: 102 | D: -1
> O=S(=O)(NCCc1c[nH]c2ccccc12)c1ccc(Cl)c(Cl)c1
  A: -7 | B: 101 | C: 109 | D: -19
> Cc1ccc(C)n1-c1cc(Cl)ccc1C(=O)O
  A: 25 | B: 84* | C: 85* | D: -6
> O=C1c2ccccc2C(=O)N1CCSc1nnc(-c2ccco2)n1Cc1ccccc1
  A: -2 | B: 103 | C: 101 | D: -6
> CCC(C)NC(=O)C1CCN(c2nc3ccccc3n3cccc23)CC1 (stereo not given)
  A: 2 | B: 103 | C: 105 | D: -27
> Cc1sc2nc(COC(=O)C(NC(=O)c3ccco3)C(C)C)[nH]c(=O)c2c1C (stereo not given)
  A: 55 | B: · | C: · | D: -26
> COC(=O)c1ccc(C2C(Oc3ccc(OC)cc3)C(=O)N2Cc2ccc(F)cc2)cc1 (stereo not given)
  A: -1 | B: 101 | C: 99 | D: -8
> CCOC(=O)C1C2NC(=S)N(c3ccccc3)C1(C)Oc1ccccc12 (stereo not given)
  A: -2 | B: 102 | C: 107 | D: -18
> CS(=O)(=O)n1nc(OC(=O)c2cc(Br)ccc2Cl)cc1N
  A: 3 | B: 101 | C: 102 | D: 12
> CCOc1cc(CN)c(-n2cccc2)cc1OCC
  A: · | B: 104 | C: 106 | D: 0
> CN1C(=O)C(C)(C)c2cc(S(=O)(=O)NC3CCCCCC3)ccc21
  A: 12 | B: 100 | C: 98 | D: -3
> C=CCOC(=O)c1c2nc3ccccc3nc2n2c1[nH]c(=O)c1ccc(C(=O)OC)cc12
  A: -4 | B: · | C: · | D: 1
> C=CCn1c(SCC(N)=O)nnc1C1CCCCC1
  A: -3 | B: 99 | C: 102 | D: 3
> CCN(CC)C(=O)CN1CCN(c2cccc(Cl)c2)CC1
  A: 0 | B: 102 | C: 103 | D: 33*
> COc1ccc(-n2ncc(C(=O)Nc3ccc4nccnc4c3)c2C)cc1
  A: -11 | B: 105 | C: 113 | D: -16
> O=C(O)COc1c(-c2ccccc2)oc2ccccc2c1=O
  A: -8 | B: 101 | C: 102 | D: -23
> C(=NCC1CCC(CN=Cc2ccco2)CC1)c1ccco1 (stereo not given)
  A: -7 | B: 109 | C: 110 | D: -17
> COC(=O)C1(C(O)c2ccc(Cl)cc2)CCCCC1 (stereo not given)
  A: -6 | B: 98 | C: 102 | D: -2
> C/C(=N\NC(=O)COc1ccc(Br)cc1)c1ccc2c(c1)OCO2
  A: -1 | B: 104 | C: 107 | D: 5
> COc1ccc(-c2nc(N3CCCCC3)c3ccccc3n2)cc1
  A: 12 | B: 101 | C: 97 | D: 15

Molecules listed so far that have an aryl methoxy group (15):
Short keys: A = MbtI inh; B = Polio RdRp inh; C = Polio RdRp inh intensity; D = MenB inh
> COc1ccc(-c2nc(=O)c3ccccc3o2)cc1
  A: 6 | B: 98 | C: 102 | D: 11
> COc1cc(/C=N/c2c(-c3ccc(O)c(OC)c3)nc3ccccn23)ccc1O
  A: · | B: 107 | C: 109 | D: -27
> COc1ccc([C@H]2[C@@H](C(=O)O)c3ccccc3C(=O)N2Cc2ccc3c(c2)OCO3)cc1
  A: 4 | B: 38* | C: 53* | D: 6
> COc1cc(C2c3cc4c(c(O)c3CC3COC(=O)C32)OCO4)cc(OC)c1O (stereo not given)
  A: · | B: 103 | C: 105 | D: 3
> COc1ccc(N=C2SCC(=O)N2CCc2ccc(OC)c(OC)c2)cc1
  A: -8 | B: 108 | C: 117 | D: -6
> COc1cc(C(=O)O)cc(Br)c1OC
  A: -1 | B: 101 | C: 102 | D: 0
> COc1ccc(CC(=O)N(C)c2ccccc2)cc1
  A: -6 | B: 100 | C: 102 | D: -4
> COc1ccc2c(c1OC)C(=O)O[C@@H]2[C@H]1c2c(cc3c(c2OC)OCO3)CCN1C
  A: -5 | B: 99 | C: 102 | D: 0
> COc1ccc(-c2nnc(SCc3cc(=O)n4cc(Br)ccc4n3)n2N)cc1OC
  A: 11 | B: 105 | C: 97 | D: -38
> COc1ccc(N(Cc2cccs2)C(=O)CSc2n[nH]c(-c3cccs3)n2)cc1
  A: 8 | B: 101 | C: 105 | D: -15
> COc1ccc(C(=O)CSc2nc(C)cc(C)n2)cc1C
  A: 9 | B: 101 | C: 103 | D: -37
> COc1cccc(CNc2ccc3c(c2)ncn3C)c1
  A: -112 | B: 102 | C: 102 | D: -1
> COC(=O)c1ccc(C2C(Oc3ccc(OC)cc3)C(=O)N2Cc2ccc(F)cc2)cc1 (stereo not given)
  A: -1 | B: 101 | C: 99 | D: -8
> COc1ccc(-n2ncc(C(=O)Nc3ccc4nccnc4c3)c2C)cc1
  A: -11 | B: 105 | C: 113 | D: -16
> COc1ccc(-c2nc(N3CCCCC3)c3ccccc3n2)cc1
  A: 12 | B: 101 | C: 97 | D: 15
